Pol III holo inh: DNA polymerase III holoenzyme inhibition | reconstituted DNA polymerase III holoenzyme replication, biochemical | Potency, µM (doses to about 57.1 µM), inactives show at the top dose activity change, negative = inhibition | hit rate 0.25% among 71,000; further: potency means the concentration at half of the fitted maximal effect; on the % scale 0 is the no-effect control and ±100 the full control effect
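Reconstituted *E. coli* holoenzyme (0.35 nM Pol III, 1 nM beta, 154 nM SSB, 2 nM primase) was preincubated with compound for 15 min at RT. Synthesis on 1.4 nM ssM13Gori ran 35 min, then was stopped with PicoGreen/EDTA and read as dsDNA fluorescence.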
HBB splice mod: modulators of hemoglobin beta chain splicing; Potency, µM (series often up to 46.1 µM), inactives show at the top dose activation, hits mostly activators; hit rate 0.06% among 65,000; HBB splicing reporter cell assay, activation; EGFP reporter with mutant IVS2-654 intron; response scale: normalised to 500 nM splice-correcting PNA; AID 925; further: potency means the concentration at half of the fitted maximal effect; 0% is about no effect
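HeLa cells stably expressing EGFP interrupted by mutant beta-globin intron 2 (IVS2-654), 500/well in 2% FCS. Treated with compound for 2 days at 37C. Splicing correction scored as total well GFP intensity (488 nm excitation, 500-520 nm emission); 500 nM antisense PNA served as control.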
Hsp90 Hop PPI: changes Hsp90-Hop TPR2A binding signal, up or down; AID 595; Potency, µM (titrated, usually from 57 µM), for the others: top-dose activity change, negative = inhibition; hit rate 0.44% among 71,000; AlphaScreen TPR2A-His6 binding biotin-Hsp90 C-terminal peptide; active means well fitted curve in either direction with a large enough effect; inconclusive means small, poorly fitted or top-dose-only effect, or another doubt; further: potency means the concentration at half of the fitted maximal effect; on the % scale 0 is the no-effect control and ±100 the full control effect; many of its hits are not listed in these tables
Rhodamine autofl: compound autofluorescence in rhodamine spectral region; Rhodamine-region fluorescence, 547/598 nm, Tris buffer; hits give high values; hit rate 0.05% among 59,000; max dye-equivalent concentration, M; in the data active means max dye-equivalent concentration above about 11 nM; inconclusive means between about 1.1 nM and that limit
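Compound fluorescence in 100 mM Tris, pH 8.0, read after 15 min at room temperature with 547 nm excitation and 598 nm emission. Output is dye-equivalent concentration from an on-plate rhodamine standard series.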
Texas Red fluor: compounds fluorescent in Texas Red spectral region; hit rate 0.06% among 59,000; max dye-equivalent concentration, M; AID 587; Compound fluorescence, Texas Red channel, 547/618 nm; hits give high values; in the data active means max dye-equivalent concentration above about 10 nM; inconclusive means between about 1.1 nM and that limit
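Compound titrations in 100 mM Tris pH 8.0 were incubated 15 min at room temperature and read at 547 nm excitation / 618 nm emission. Texas Red six-point standard curve on each plate converted fluorescence to dye-equivalent concentration.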
CRE Fsk mod: alters forskolin-stimulated CRE reporter signaling in CHO cells. CHO CRE-bla reporter (cAMP response element driving beta-lactamase), forskolin EC10, beta-lactamase ratio. AID 662. Potency, µM (top dose mostly 38.2 µM), inactives show at the highest dose activity change, negative = inhibition, most hits filed as activators. hit rate 2.5% among 71,000; active means well fitted activation curve with a large enough effect in the signal ratio, with a control signal flat, not every such curve was filed as active; inconclusive means small, poorly fitted or top-dose-only effect, or effect the other way, or a change in a side signal; the % refers to the signal ratio; further: potency means the concentration at half of the fitted maximal effect; % of control where 0% means no effect
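The 460nm/530nm emission ratio after CCF4 loading defined %Activity, from which AC50 values were obtained. CRE-bla CHO cells received compound dilution series together with an EC10 level of NKH 477 for 3 hours at 37 degrees Celsius.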
Active calls of the source: *; i = inactive; ? = inconclusive; . = no result given; & = joins results of further samples; [ ] = another dose, or the depositor's remark. Unless noted, the call rests on the fitted dose curve; in most records, active means well fitted curve in the direction sought with a large enough effect; inconclusive means small, poorly fitted or top-dose-only effect, or another doubt; inactive means no such curve, though single readings can be large; an effect the other way counts as inactive or inconclusive.

SMILES	Pol III holo inh	HBB splice mod	Hsp90 Hop PPI	Rhodamine autofl	Texas Red fluor	CRE Fsk mod
O=C(OCC#CCSc1nnc(-c2cccc3ccccc23)o1)c1cccs1	-1%	-0.3%[57.5 µM]	?	i	i	-3%
CCC(C)(C)C(=O)O[C@@H]1C[C@@H](C)C=C2C=C[C@H](C)[C@H](CC[C@@H]3C[C@@H](O)CC(=O)O3)[C@H]21	-2%	.	3%	.	.	21%
O=C(CC1SC(=NC2CCCCC2)NC1=O)Nc1ccccc1 (stereo not given)	4%	0.0%[57.5 µM]	-1%	i	?	?
C=CCNc1oc(-c2cccc3ccccc23)nc1C#N	2%	1.4%[0.369 µM]	-2%	i	i	13µM*
NC(=O)c1cc[n+](CC2=C(C(=O)O)N3C(=O)[C@@H](NC(=O)[C@H](c4ccccc4)S(=O)(=O)[O-])[C@@H]3SC2)cc1	1%[25.6 µM]	3.2%[20.6 µM]	-6%[26 µM]	i	?	-1%[17.1 µM]
COc1cccc(-c2cc(=O)c3ccccc3o2)c1N	-6%&1%	-1.3%	8%&-3%	i	i	-14%&-1%
C1CCC2=NCCCN2CC1	-6%	5.8%[0.369 µM]	-3%	i	?	9%
Nc1ncnc2c1ncn2[C@@H]1O[C@@H](CO)[C@H](O)[C@H]1O	-2%[25.6 µM]	1.0%[20.6 µM]	1%[26 µM]	i	i	-10%[17.1 µM]
CN(C)CCCN1c2ccccc2Sc2ccc(C(F)(F)F)cc21	-4%[25.6 µM]	-0.4%[20.6 µM]	-4%[26 µM]	i	?	-9%[17.1 µM]
CCCSc1nnc2[nH]c(=O)cc(N)n12	-4%	0.8%	-2%	i	?	-5%
COc1cc2c(cc1OC)C1(CCCC1)CNC2C (stereo not given)	-6%	.	-1%	i	i	-2%
NC(N)=NCc1cccc(I)c1	-2%	0.4%	-7%	i	?	-2%
O=C(O)CC(O)(CC(=O)O)C(=O)O	-3%	-0.6%	1%	.	.	0%
O=C(NC1=NC2CCCCC2N1)c1ccccc1 (stereo not given)	4%	3.7%	2%	i	i	-4%
Cc1cccc(-c2noc(-c3ccc(F)cc3)n2)c1	-7%	-0.2%	29%	i	?	1%
CCN(CC)CC(=O)Nc1c(C)cccc1C	-1%[25.6 µM]	1.1%[20.6 µM]	-1%[26 µM]	i	i	-2%[17.1 µM]
NC(=NC1C2CC3CC(C2)CC1C3)Nc1ccc(I)cc1 (stereo not given)	-5%	.	-4%	.	.	0%
CCc1cccc(N(C)C(N)=Nc2cccc3ccccc23)c1	-2%	-0.6%	-8%	i	i	-3%
Cc1cc(N)c2cc(NC(=O)Nc3ccc4nc(C)cc(N)c4c3)ccc2n1	4µM*	1.1%[9.22 µM]	?	i	i	-1%[7.6 µM]
COCCCCC(=NOCCN)c1ccc(C(F)(F)F)cc1	-2%	-1.0%[20.6 µM]	-3%	i	?	-18%
Oc1c(Cl)cc(C(c2cc(Cl)c(O)c(Cl)c2)C(c2cc(Cl)c(O)c(Cl)c2)c2cc(Cl)c(O)c(Cl)c2)cc1Cl	-12%[11.4 µM]	1.3%[9.22 µM]	-3%[11 µM]	i	i	13%[7.6 µM]

Shown in markdown: entries from further up
| molecule | Pol III holo inh | HBB splice mod | Hsp90 Hop PPI | Rhodamine autofl | Texas Red fluor | CRE Fsk mod |
| --- | --- | --- | --- | --- | --- | --- |
| COc1cccc(-c2cc(=O)c3ccccc3o2)c1N | -6%&1% | -1.3% | 8%&-3% | i | i | -14%&-1% |
| C1CCC2=NCCCN2CC1 | -6% | 5.8%[0.369 µM] | -3% | i | ? | 9% |
| Nc1ncnc2c1ncn2[C@@H]1O[C@@H](CO)[C@H](O)[C@H]1O | -2%[25.6 µM] | 1.0%[20.6 µM] | 1%[26 µM] | i | i | -10%[17.1 µM] |
| CN(C)CCCN1c2ccccc2Sc2ccc(C(F)(F)F)cc21 | -4%[25.6 µM] | -0.4%[20.6 µM] | -4%[26 µM] | i | ? | -9%[17.1 µM] |
| CCCSc1nnc2[nH]c(=O)cc(N)n12 | -4% | 0.8% | -2% | i | ? | -5% |
| COc1cc2c(cc1OC)C1(CCCC1)CNC2C (stereo not given) | -6% | . | -1% | i | i | -2% |
| NC(N)=NCc1cccc(I)c1 | -2% | 0.4% | -7% | i | ? | -2% |
| O=C(O)CC(O)(CC(=O)O)C(=O)O | -3% | -0.6% | 1% | . | . | 0% |
| O=C(NC1=NC2CCCCC2N1)c1ccccc1 (stereo not given) | 4% | 3.7% | 2% | i | i | -4% |
| Cc1cccc(-c2noc(-c3ccc(F)cc3)n2)c1 | -7% | -0.2% | 29% | i | ? | 1% |
| CCN(CC)CC(=O)Nc1c(C)cccc1C | -1%[25.6 µM] | 1.1%[20.6 µM] | -1%[26 µM] | i | i | -2%[17.1 µM] |
| NC(=NC1C2CC3CC(C2)CC1C3)Nc1ccc(I)cc1 (stereo not given) | -5% | . | -4% | . | . | 0% |
| CCc1cccc(N(C)C(N)=Nc2cccc3ccccc23)c1 | -2% | -0.6% | -8% | i | i | -3% |
| Cc1cc(N)c2cc(NC(=O)Nc3ccc4nc(C)cc(N)c4c3)ccc2n1 | 4µM* | 1.1%[9.22 µM] | ? | i | i | -1%[7.6 µM] |

2 neighbouring records already listed:
SMILES	Pol III holo inh	HBB splice mod	Hsp90 Hop PPI	Rhodamine autofl	Texas Red fluor	CRE Fsk mod
O=C(OCC#CCSc1nnc(-c2cccc3ccccc23)o1)c1cccs1	-1%	-0.3%[57.5 µM]	?	i	i	-3%
CCC(C)(C)C(=O)O[C@@H]1C[C@@H](C)C=C2C=C[C@H](C)[C@H](CC[C@@H]3C[C@@H](O)CC(=O)O3)[C@H]21	-2%	.	3%	.	.	21%

Bioassay records from PubChem BioAssay.

An excerpt (hit frequency here may not be typical).
